Bioassay records (PubChem BioAssay)
CBX7 AlphaScr: CBX7 chromodomain binding inhibitors, primary screen, biochemical, AlphaScreen; Chromobox protein homolog 7 (Homo sapiens), O95931; AlphaScreen His6-CBX7 / biotin-H3K27me3 peptide binding; active compounds read low; normalised signal (fraction of DMSO) (concentration not given with the values); 66,000 compounds, 1.1% hits; in the data active means normalised signal below about 0.5;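 further: 100 nL library stock added to about 20 µL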
Target sequence (O95931 whole entry, looked up): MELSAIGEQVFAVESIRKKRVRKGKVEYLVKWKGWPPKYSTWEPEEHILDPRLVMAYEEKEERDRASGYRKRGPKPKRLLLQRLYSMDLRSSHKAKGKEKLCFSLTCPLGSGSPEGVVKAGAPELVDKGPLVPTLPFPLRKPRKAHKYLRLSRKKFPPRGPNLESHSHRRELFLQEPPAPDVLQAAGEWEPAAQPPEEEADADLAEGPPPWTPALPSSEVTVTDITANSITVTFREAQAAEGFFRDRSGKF
CBX7 AlphaScr z-score: second read-out of CBX7 AlphaScr, no call of its own (marks repeat the call); z-score; measured here: z-score of CBX7 signal; some inactives read as strong as hits; reference of the scale not given here;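 same signal on another scale; lower means less binding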
* = called active by the depositor. These rows are one share of the data; rates above refer to the full screens.

SMILES | CBX7 AlphaScr | CBX7 AlphaScr z-score
COc1ccc2c(c1)CCc1c(C(=O)Nc3c(C)nn(Cc4ccc(Cl)cc4)c3C)noc1-2 | 0.85 | -3.2
COc1cccc(-c2nnc(NC(=O)c3ccc(F)cc3)s2)c1 | 0.96 | -0.081
CCc1ccc(NC(=O)Cn2cc(S(=O)(=O)c3ccc(F)cc3)c(=O)c3cc(Cl)ccc32)cc1 | 0.96 | -1.3
CCN1CCN(C(c2cccs2)C(C)NC(=O)C(=O)NCc2ccc3c(c2)OCO3)CC1 (stereo not drawn) | 1.1 | 0.93
CCC1Oc2ccc(C)cc2N(CC(=O)NC2CC2)C1=O (stereo not drawn) | 1.2 | 2
Cc1onc(-c2c(Cl)cccc2Cl)c1C(=O)Nc1ccccc1C(F)(F)F | 0.73 | -4.2
CCc1ccc(CNC(=O)CN2C(=O)COc3ccccc32)cc1 | 1 | -0.11
O=C(Nc1nc(-c2ccc(F)cc2)cs1)c1ccc(C(=O)c2ccccc2)cc1 | 1 | 0.33
CCOC(=O)c1c(NC(=O)COc2ccccc2)sc(C)c1C | 1.1 | 1.4
Clc1ccc(C(c2nnnn2-c2cccc(Cl)c2)N2CCOCC2)cc1 (stereo not drawn) | 1 | 0.037
COc1ccc(OC)c(NC(=O)c2ccc3c(c2)C(=O)N(c2ccc(OC(C)=O)cc2)C3=O)c1 | 1 | 0.14
CC(C)c1ccc(NC(=O)[C@H](CSCc2ccccc2)N2Cc3ccccc3C2=O)cc1 | 0.92 | -1.9
CCCCCCCNC(=O)CCC1CC(=O)Nc2ccccc21 (stereo not drawn) | 0.96 | -0.83
Cc1nc2ccc(S(=O)(=O)NC(C(=O)NC3CCC(C)CC3)C(C)C)cc2s1 (stereo not drawn) | 0.98 | -0.45
Cc1cc2nc(SCc3cc4c(cc3Cl)OCO4)[nH]c2cc1C | 0.9 | -1.9
O=C(CCCn1c(=O)[nH]c2ccc(Br)cc2c1=O)NCc1ccccn1 | 0.99 | -0.27
Cc1ccc(C(=O)CC2(O)C(=O)N(Cc3ccc4c(c3)OCO4)c3ccccc32)cc1 (stereo not drawn) | 1 | -0.046
O=C(NCCN1CCCCCC1)c1cc(-c2ccncc2)nc2ccccc12 | 1 | 0.29
CN1CCN(c2oc(-c3ccccc3F)nc2C#N)CC1 | 1.2 | 2.7
Cc1ccc(NC(=O)CCc2c(C)nc3cc(-c4ccc(Cl)cc4)nn3c2C)c(C)c1 | 0.99 | -0.35
Cc1csc(NC(=O)CSc2nnc(Cc3cc(=O)[nH]c(=O)[nH]3)n2-c2ccccc2)n1 | 0.86 | -5
COc1ccc(-c2nn(C)c3sc(C(=O)N(C)c4cc(Cl)ccc4C)cc23)cc1OC | 0.99 | -0.075
CS(=O)(=O)N1CCCC(C(=O)NCCCN2CCN(Cc3ccccc3)CC2)C1 (stereo not drawn) | 1.1 | 1.1
CC1(C)CC(=O)c2sc(NC(=O)c3ccc(F)cc3)nc2C1 | 0.99 | -0.33
Cn1nc(CC(=O)Nc2ccc(C(F)(F)F)cc2)c2ccccc2c1=O | 1 | 0.46

Entries above with four or more nitrogen atoms:
SMILES | CBX7 AlphaScr | CBX7 AlphaScr z-score
COc1ccc2c(c1)CCc1c(C(=O)Nc3c(C)nn(Cc4ccc(Cl)cc4)c3C)noc1-2 | 0.85 | -3.2
CCN1CCN(C(c2cccs2)C(C)NC(=O)C(=O)NCc2ccc3c(c2)OCO3)CC1 (stereo not drawn) | 1.1 | 0.93
Clc1ccc(C(c2nnnn2-c2cccc(Cl)c2)N2CCOCC2)cc1 (stereo not drawn) | 1 | 0.037
O=C(CCCn1c(=O)[nH]c2ccc(Br)cc2c1=O)NCc1ccccn1 | 0.99 | -0.27
O=C(NCCN1CCCCCC1)c1cc(-c2ccncc2)nc2ccccc12 | 1 | 0.29
CN1CCN(c2oc(-c3ccccc3F)nc2C#N)CC1 | 1.2 | 2.7
Cc1ccc(NC(=O)CCc2c(C)nc3cc(-c4ccc(Cl)cc4)nn3c2C)c(C)c1 | 0.99 | -0.35
Cc1csc(NC(=O)CSc2nnc(Cc3cc(=O)[nH]c(=O)[nH]3)n2-c2ccccc2)n1 | 0.86 | -5
CS(=O)(=O)N1CCCC(C(=O)NCCCN2CCN(Cc3ccccc3)CC2)C1 (stereo not drawn) | 1.1 | 1.1

(further entries)
SMILES | CBX7 AlphaScr | CBX7 AlphaScr z-score
CC1CCCCN1CCNC(=O)Cn1nc(Cc2cccnc2)c2ccccc2c1=O (stereo not drawn) | 0.99 | -0.014
COc1ccc(-n2nnnc2SCC(=O)N2CCOCC2)cc1 | 0.99 | -0.083
CCN(CC)S(=O)(=O)c1ccc2c(c1)N(CC(=O)N(C)Cc1ccccc1)C(=O)CS2 | 1 | 0.43
COc1ccc(OC)c2[nH]c(=O)c(CCNC(=O)c3ccc(C(C)(C)C)cc3)cc12 | 1 | 1.2
Cc1ccc(-n2cc(-c3ccc(F)cc3)[nH]c2=O)cc1F | 1 | 0.73
COc1ccc(/C=C/c2cc(C(F)(F)F)[nH]c(=O)n2)cc1OC | 0.88 | -1.4
COc1ccc(NC2c3ccccc3C(=O)N2Cc2ccccc2)cc1Cl (stereo not drawn) | 0.99 | -0.077
Cc1cc(C)c(OCC(=O)Nc2cccc(-c3nc4ncccc4o3)c2)c(Br)c1 | 1 | 0.2
COC(=O)c1c(NC(=O)c2cccc(C)c2)sc(Cc2ccccc2)c1C | 1.5 | 6.2
CC1CC(C)CN(c2ncnc3c2cnn3-c2ccc(Cl)cc2)C1 (stereo not drawn) | 1.3 | 1
CC(=O)C12c3ccccc3C(c3ccccc31)C1C(=O)N(c3cccc(C(=O)O)c3)C(=O)C12 (stereo not drawn) | 1.1 | 2.1
CCOC(=O)C1CCCN(C(=O)CCC(=O)Nc2ccc3nc(N4CCOCC4)cc(C)c3c2)C1 (stereo not drawn) | 1.1 | 0.12
CN(C1CCCCC1)S(=O)(=O)c1ccc(C(=O)Nc2nnc(C3CC3)o2)cc1 | 0.028* | -1.7*
CCC1=Nc2cc(C(=O)NCc3cccs3)ccc2Sc2ccc(Br)cc21 | 0.96 | -2
COc1ccc(OCc2nc3ccccc3n2CCOc2ccccc2)cc1 | 0.8 | -1.4
O=C(NCCc1ccccc1)c1ccc2c(c1)N(Cc1ccccc1)C(=O)CS2=O (stereo not drawn) | 1.2 | 2.5
COc1ccc(-c2cc(C(F)(F)F)nc(N3CCOCC3)n2)cc1OC | 1.1 | 6.5
CC(=O)Nc1cc2ccccc2oc1=O | 1 | 0.32
CCc1cccc(NC(=O)c2csc3c2CCCC3)c1 | 1.2 | 8.3
CC1CCN(C(=O)CN2C(=O)COc3ccc(S(=O)(=O)N4CCCC4)cc32)CC1 | 0.97 | -0.41
CCOC(=O)c1c(NC(=O)CNCCCN2CCOCC2)sc2c1CCCCC2 | 0.96 | -1.5
O=C(CCNS(=O)(=O)c1ccc2c(c1)CCC(=O)N2)NCc1ccccc1Cl | 1 | 0.23
O=C(CCCCCn1c(=O)c2sccc2n(Cc2ccccc2F)c1=O)NCc1ccccc1 | 1 | 0.3
Cc1ccnc(NS(=O)(=O)c2ccc(NC(=O)CCCOc3ccccc3)cc2)n1 | 0.9 | -1.1
CCOc1ccc(NC(=O)NCCN2CCN(c3cccc(Cl)c3)CC2)cc1 | 1 | 0.53

The list goes on; it opens with the 2 that closed the last part.
SMILES | CBX7 AlphaScr | CBX7 AlphaScr z-score
Cc1ccnc(NS(=O)(=O)c2ccc(NC(=O)CCCOc3ccccc3)cc2)n1 | 0.9 | -1.1
CCOc1ccc(NC(=O)NCCN2CCN(c3cccc(Cl)c3)CC2)cc1 | 1 | 0.53
CC1(C(=O)NCC2CCCO2)CCC(=O)N1CCc1ccccc1 (stereo not drawn) | 1.1 | 2.3
CCOc1ccccc1NC(=O)c1c(NCc2ccncc2)sc2c1CCCC2 | 0.62 | -5.4
CCOC(=O)c1cccc(NC2c3ccccc3C(=O)N2Cc2ccccc2)c1 (stereo not drawn) | 1 | -0.016
CCOc1ccc(N(CC)S(=O)(=O)c2ccc3c(c2)CCN3C(=O)C2CCC2)cc1 | 0.99 | -0.2
COc1ccc(S(=O)(=O)N2CC=C(C(=O)NCCC3=CCCCC3)CC2)cc1 | 1 | 0.7
COc1ccc(C2C(=O)N(C3CCCCC3)CC(=O)N2C2CCCCC2)cc1 (stereo not drawn) | 0.85 | -0.61
COc1ccc(OC)c(CN2CCN(Cc3ccc(F)cc3)CC2)c1 | 0.9 | -1.7
COc1ccc(C)cc1NC(=O)CN(C)S(=O)(=O)c1cnc[nH]1 | 1.1 | 0.69
CCN(CCCNC(=O)Cn1nc(-c2ccccc2)ccc1=O)c1cccc(C)c1 | 0.84 | -4.1
Cc1cc(C)cc(Oc2coc3c(CN4CCC(C)CC4)c(O)ccc3c2=O)c1 | 1.2 | 1.4
CCOc1ccc(CCNC(=O)CN2CCN(Cc3ccccc3F)C2=O)cc1OCC | 0.99 | -0.18
CC(C)c1ncc(C(O)c2cccc3ccccc23)n1C (stereo not drawn) | 1.1 | 0.89
COc1cccc(C2CC(=O)Nc3cc4c(cc32)OCO4)c1 (stereo not drawn) | 0.95 | -2
Cc1cccc(-n2ccnc2SCC(=O)Nc2ccccc2F)c1C | 0.86 | -0.13
COc1cccc(C2=NOC(C(=O)NCc3ccc(F)cc3)C2)c1 (stereo not drawn) | 1 | 0.41
COc1cc(-n2cnc3cc(C(=O)NCCc4ccccc4)ccc32)cc(OC)c1OC | 0.93 | -0.84
Cc1ccc(C(=O)Nc2c(-c3cccs3)nc3ccccn23)cc1C | 0.92 | -0.14
CC12C=CC(C)(O1)C1C(=O)N(c3ccc(F)cc3)C(=O)C12 (stereo not drawn) | 0.86 | -3.7
Cc1ccccc1Cc1c(C)nc2c(C(=O)NCc3cccnc3)cnn2c1C | 1 | 0.53
COc1ccc(OC)c(NS(=O)(=O)c2ccc(OC)c3ncccc23)c1 | 1 | 0.43
CCc1nnc(NC(=O)Cc2ccc(Cl)cc2)s1 | 1.1 | 0.3
COc1ccc(CCNC(=O)CSc2nc(Nc3ccc(F)cc3)c3ccccc3n2)cc1OC | 1 | 2.5
COc1ccc(CN2C(=O)c3c(c(C)n(C)c3C)C2C(=O)NC2CCCCC2)cc1 (stereo not drawn) | 0.91 | -0.99
CCc1cc(-c2nc(-c3ccc([N+](=O)[O-])cc3)cs2)ccn1 | 0.99 | -0.094
CN(C(=O)CCN1C(=O)C(C)(C)Nc2ccccc21)c1ccccc1 | 1.1 | 2.4
More records:
SMILES | CBX7 AlphaScr | CBX7 AlphaScr z-score
COc1ccc(-c2nc3c4c5c(sc4ncn3n2)CCCC5)cc1OC | 0.99 | -0.27
COc1ccc(-c2nc(CS(=O)(=O)CC(=O)NCc3ccccc3Cl)c(C)o2)cc1 | 1 | 0.35
Cc1ccc(CCNC(=O)c2nc(-c3ccccc3C)oc2C)cc1 | 0.97 | -0.16
O=C1CN(C(=O)c2ccccc2)C(c2ccccc2)c2cc(Cl)ccc2N1 (stereo not drawn) | 1 | 0.21
COc1ccc(CN2C(=O)c3ccccc3C2C(=O)NC2CCCCCCC2)c(OC)c1 (stereo not drawn) | 0.53 | -17
Cc1ccc(S(=O)(=O)Nc2ccc(-c3cn4ccccc4n3)cc2)cc1 | 1 | 0.29
COc1cccc(C(=O)Nc2c3c(nn2-c2ccccc2C)CSC3)c1 | 0.95 | -0.91
O=C1CCCC2=C1C(c1ccccc1)CC(=O)N2c1cccc(C(F)(F)F)c1 (stereo not drawn) | 1.1 | 0.77
O=C(NCc1cccnc1)c1cnn(-c2ccccc2)c1-n1cccc1 | 1 | 0.74
Cc1ccc(-n2c3c(cc(C(=O)NCc4ccc5c(c4)OCO5)c2=O)C(=O)CC(C)(C)C3)cc1 | 0.98 | -0.77
CCCc1cc(-c2nc(N)ncc2-c2nc(C)cs2)c(O)cc1OC | 0.84 | -0.28
Cc1ccc(C)c(C(=O)N2CCC(c3nc4c(nnn4Cc4c(F)cccc4F)c(=O)[nH]3)CC2)c1 | 0.83 | -3.8
CCOc1ccc(N2C(=O)C3C4c5ccccc5C(C(C)=O)(c5ccccc54)C3C2=O)cc1 (stereo not drawn) | 0.97 | -0.62
CCOC(=O)Cn1c2ccccc2n2cc(-c3cccc([N+](=O)[O-])c3)cc12 | 0.82 | -3.4
CCOc1ccc(-n2cc(C(=O)Nc3ccc(F)cc3)c3cc(OC)c(OC)cc3c2=O)cc1 | 0.86 | -3.7
COc1ccc(CNC(=O)CN2CCN(Cc3ccccc3F)C2=O)cc1 | 0.78 | -3.2
COc1ccc(CC(=O)Nc2ccc(S(=O)(=O)Nc3nc(C)cc(C)n3)cc2)cc1 | 0.92 | -0.71
COc1ccc(OC)c(NC(=O)c2c(NCc3ccccn3)sc3c2CCC3)c1 | 0.85 | -1.7
COc1ccc(-n2nc3c(c2NC(=O)c2ccccc2Cl)CSC3)cc1 | 0.93 | -1.8
Cc1cccc(OCc2nc(C#N)c(NCCc3ccccc3)o2)c1 | 0.67 | -2.1
Cc1ccc(-c2cc(C(F)(F)F)n3nc(C(=O)Nc4c(Cl)cccc4Cl)cc3n2)cc1 | 1.2 | 2.5
COc1ccc2c(c1)Cc1sc(NC(=O)c3ccccc3)nc1-2 | 1.1 | 1.8
COc1cccc(OCCNC(=O)Nc2cc(F)c(F)cc2Cl)c1 | 0.94 | -0.71
O=C(Nc1ncc(Cc2cc(Cl)ccc2Cl)s1)C1CCCCC1 | 0.96 | -0.79
COc1ccc(-c2nnc(SCC(=O)Nc3ccccc3)n2-c2ccccc2C)cc1 | 1.3 | 3.3
CC1(C)CC(=O)C2=C(C1)NC(=O)CC2c1cccc(Br)c1 (stereo not drawn) | 1 | 0.62
COc1ccc(C2C(=O)N(CCc3ccccc3)CC(=O)N2Cc2ccc(Cl)cc2)cc1 (stereo not drawn) | 1 | 0.73
Cc1nc2ncnn2c(C)c1Cc1ccc(Cl)cc1F | 1 | 0.48

Structural class, those above with a nitro group on carbon
SMILES | CBX7 AlphaScr | CBX7 AlphaScr z-score
CCc1cc(-c2nc(-c3ccc([N+](=O)[O-])cc3)cs2)ccn1 | 0.99 | -0.094
CCOC(=O)Cn1c2ccccc2n2cc(-c3cccc([N+](=O)[O-])c3)cc12 | 0.82 | -3.4
